Env_fusion_inh: HIV envelope-mediated fusion inhibition; HeLa-JRFL Env/CEM21 cell fusion, luciferase; inhibition, % at 12.3 µM; 1.1% of 360,000 active;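 active means mean replicate inhibition score of at least 50 and every replicate individually at or above 50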;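 further: 0% = plate neutral controls and 100% = maraviroc near 300 nM; one replicate is shown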
Yeast_UUG_start: alters start codon recognition fidelity in yeast; AID 602363; 0.13% of 350,000 active; activity score, % at 18.7 µM; S. cerevisiae UUG-firefly luciferase reporter, luminescence/redox ratio;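 active means replicate mean at a twofold rise or more, about +100% in these data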;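 further: firefly luciferase made from a UUG start codon reports start codon fidelity; reporter light over untreated wells divided by growth signal over untreated wells; some hits fall short of that in this replicate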
Active calls of the source: *; [ ] = dose if it differs, or a comment. An excerpt. The share of hits here may be higher or lower than overall.

SMILES Env_fusion_inh Yeast_UUG_start
C[C@@H]1CCCCO[C@@H](CN(C)Cc2ccc(C(F)(F)F)cc2)[C@@H](C)CN([C@@H](C)CO)C(=O)c2cc(NC(=O)CCCN(C)C)ccc2O1 -7.3[16.7_µM] 32.4
COC(=O)C[C@@H]1C[C@H]2c3cc(NC(=O)Nc4ccc(C(F)(F)F)cc4)ccc3O[C@H]2[C@@H](CO)O1 28.5[16.7_µM] -16.9
C[C@@H]1CN([C@H](C)CO)C(=O)c2cc(NC(=O)C3CCCCC3)ccc2O[C@H]1CN(C)C(=O)Nc1ccc(F)cc1 -2.2[16.7_µM] -2.8
C[C@H](CO)N1C[C@H](C)[C@H](CN(C)Cc2ccc3c(c2)OCO3)Oc2ncc(-c3cccc(C(F)(F)F)c3)cc2C1=O 22.9[16.7_µM] 5.3
C[C@@H]1CCCCO[C@@H](CN(C)C(=O)Nc2ccc(F)cc2)[C@H](C)CN([C@H](C)CO)C(=O)c2cc(NC(=O)Cc3ccccc3)ccc2O1 -38.6[16.7_µM] -9.1
COc1ccc(S(=O)(=O)Nc2ccc3c(c2)C(=O)N([C@H](C)CO)C[C@@H](C)[C@H](CN(C)C(=O)c2ccccc2)OCCCC[C@@H](C)O3)cc1 -11.9[16.7_µM] 7.0
COc1cccc(S(=O)(=O)N[C@H]2C=C[C@H](CC(=O)NC3Cc4ccccc4C3)O[C@@H]2CO)c1 -14.5[16.7_µM] 12.0
COc1ccc(NC(=O)Nc2ccc3c(c2)C(=O)N([C@H](C)CO)C[C@@H](C)[C@H](CN(C)S(C)(=O)=O)OCCCC[C@H](C)O3)cc1 -9.2[16.7_µM] 22.8
CCCC#Cc1cnc2c(c1)C(=O)N([C@H](C)CO)C[C@@H](C)[C@H](CN(C)Cc1ccc3c(c1)OCO3)O2 19.7[16.7_µM] 8.4
C[C@@H]1CN([C@@H](C)CO)C(=O)c2cc(C#Cc3ccccc3)cnc2O[C@@H]1CN(C)C(=O)CN(C)C -6.2[16.7_µM] -8.3
CN(C)CCCNC(=O)C[C@@H]1CC[C@@H]2[C@H](COC[C@@H](O)CN2C(=O)c2ccncc2)O1 4.8[16.7_µM] -12.9
Cc1noc(C)c1NC(=O)N(C)C[C@@H]1Oc2ccc(NS(=O)(=O)c3cccs3)cc2CC(=O)N([C@@H](C)CO)C[C@@H]1C 8.7[16.7_µM] -2.3
O=C(C[C@@H]1C=C[C@H](NS(=O)(=O)c2ccc(F)cc2)[C@H](CO)O1)NCCc1ccncc1 -15.8[16.7_µM] -13.3
O=C(C[C@H]1CC[C@@H]2[C@H](COC[C@@H](O)CN2C(=O)c2ccccc2F)O1)NCc1ccc(Cl)c(Cl)c1 1.0[16.7_µM] 4.0
COc1ccc(S(=O)(=O)Nc2ccc3c(c2)C(=O)N([C@H](C)CO)C[C@H](C)[C@H](CN(C)S(=O)(=O)c2ccc(Cl)cc2)O3)cc1 21.7[16.7_µM] -5.0
O=C(NCC[C@H]1CC[C@@H](NS(=O)(=O)c2ccc(F)cc2)[C@@H](CO)O1)Nc1ccc(Cl)cc1 24.8[16.7_µM] 25.5
CCC(=O)Nc1ccc2c(c1)OC[C@H](C)N(C(=O)CN1CCOCC1)C[C@@H](C)[C@@H](OC)CN(C)C2=O -13.6[16.7_µM] -2.1
COc1ccc(NC(=O)Nc2ccc3c(c2)C(=O)N([C@@H](C)CO)C[C@@H](C)[C@@H](CN(C)Cc2ccncc2)OCCCC[C@@H](C)O3)cc1 -12.5[16.7_µM] 2.5
O=C(Nc1ccc2c(c1)[C@H]1C[C@@H](CC(=O)N3CCCCC3)O[C@@H](CO)[C@H]1O2)C1CCC1 21.4[16.7_µM] -12.4
COc1ccc(NC(=O)Nc2cccc3c2O[C@H](CN(C)Cc2ccc(C(F)(F)F)cc2)[C@H](C)CN([C@@H](C)CO)C3=O)cc1 18.4[16.7_µM] 12.5
CCC(=O)N[C@@H]1CC[C@H](CCNC(=O)Nc2ccc(C(F)(F)F)cc2)O[C@H]1CO 4.3[16.7_µM] 24.7
Cc1noc(C)c1NC(=O)N(C)C[C@@H]1OCCCC[C@H](C)Oc2ccc(NC(=O)Cc3ccccc3)cc2C(=O)N([C@@H](C)CO)C[C@H]1C 18.0[16.7_µM] -5.1
Cc1ccc(S(=O)(=O)N2C[C@H](O)COC[C@@H]3O[C@@H](CC(=O)NCc4ccc5c(c4)OCO5)CC[C@H]32)cc1 16.5[16.7_µM] 25.2
CCC(=O)Nc1ccc2c(c1)C(=O)N(C)C[C@@H](OC)[C@@H](C)CN(C(=O)c1ccc(F)cc1)[C@H](C)CO2 9.6[16.7_µM] -0.1
CS(=O)(=O)Nc1ccc2c(c1)[C@H]1C[C@@H](CC(=O)NCc3ccc(Oc4ccccc4)cc3)O[C@H](CO)[C@H]1O2 -3.1[16.7_µM] 1.1
N#C[C@H]1[C@@H](c2ccccc2)[C@H](CO)N1C(=O)Cc1ccccc1 15.1[16.7_µM] -4.1
C[C@@H]1CN([C@@H](C)CO)C(=O)c2cc(NC(=O)Nc3ccc(C(F)(F)F)cc3)ccc2O[C@@H](C)CCCCO[C@@H]1CN(C)Cc1ccc(C(=O)O)cc1 11.0[16.7_µM] 3.6
COc1ccc(S(=O)(=O)N(C)C[C@@H]2OCCCC[C@H](C)Oc3ccc(NC(=O)C4CCCCC4)cc3C(=O)N([C@@H](C)CO)C[C@H]2C)cc1 -35.8[16.7_µM] 11.4
COc1ccc(S(=O)(=O)N(C)C[C@H]2Oc3cc(C4=CCCC4)ccc3S(=O)(=O)N([C@H](C)CO)C[C@@H]2C)cc1 -17.6[16.7_µM] -10.2
COC(=O)C[C@@H]1CC[C@@H]2[C@@H](COc3ccc(NS(=O)(=O)c4ccc(C)cc4)cc3C(=O)N2C)O1 16.2[16.7_µM] -0.1
C[C@H]1CN([C@@H](C)CO)C(=O)c2cc(C#CCN(C)C)cnc2O[C@H]1CN(C)C(=O)Nc1ccccc1F 8.4[16.7_µM] 6.2
COc1ccc(NC(=O)Nc2ccc3c(c2)[C@H]2C[C@H](CC(=O)N[C@@H](C)c4ccccc4)O[C@@H](CO)[C@H]2O3)cc1 13.8[16.7_µM] -8.8
CN1CCN(C(=O)C[C@H]2C[C@H]3c4cc(NC(=O)Nc5ccccc5F)ccc4O[C@H]3[C@@H](CO)O2)CC1 -6.1[16.7_µM] -10.9
O=C(C[C@@H]1CC[C@H](NC(=O)Nc2cccc(F)c2)[C@H](CO)O1)NCC1CCCCC1 3.7[16.7_µM] -3.2
CCC(=O)N(C)C[C@H]1Oc2ncc(Br)cc2C(=O)N([C@H](C)CO)C[C@H]1C 2.8[16.7_µM] -8.2
O=C(C[C@@H]1CC[C@@H](NC(=O)c2ccncc2)[C@@H](CO)O1)Nc1ccccc1 -7.1[16.7_µM] -22.9
C[C@@H]1CCCCO[C@@H](CN(C)C(=O)NC2CCCCC2)[C@@H](C)CN([C@H](C)CO)C(=O)c2cc(NC(=O)C3CCCCC3)ccc2O1 26.7[16.7_µM] 0.6
COc1ccccc1NC(=O)N[C@H]1C=C[C@@H](CC(=O)N[C@H](C)c2ccccc2)O[C@@H]1CO -1.3[16.7_µM] -19.9
CC(=O)N(C)C[C@@H]1Oc2ncc(C#Cc3ccc(F)cc3)cc2C(=O)N([C@H](C)CO)C[C@H]1C -8.6[16.7_µM] 2.5
C[C@@H]1CCCCO[C@@H](CN(C)C(=O)NC2CCCCC2)[C@H](C)CN([C@H](C)CO)C(=O)c2cc(NC(=O)CCCN(C)C)ccc2O1 36.6[16.7_µM] 7.6
O=C(C[C@H]1C=C[C@H](NC(=O)Nc2ccccc2)[C@@H](CO)O1)NCc1cccc(F)c1 -17.5[16.7_µM] -15.6
COc1ccc(NC(=O)N(C)C[C@@H]2Oc3c(NS(=O)(=O)c4ccc(OC)cc4)cccc3C(=O)N([C@@H](C)CO)C[C@H]2C)cc1 -28.6[16.7_µM] 1.8
C[C@@H]1CN([C@@H](C)CO)C(=O)c2cccc(NC(=O)Nc3ccc(F)cc3)c2O[C@H]1CN(C)C(=O)NC1CCCCC1 5.0[16.7_µM] 3.8
CCC(=O)N(C)C[C@H]1Oc2ncc(C#CCC(C)C)cc2C(=O)N([C@@H](C)CO)C[C@H]1C 15.9[16.7_µM] -2.8
C[C@@H]1CN([C@@H](C)CO)S(=O)(=O)c2ccc(C#C[C@@H](C)O)cc2O[C@@H]1CN(C)C(=O)CN(C)C -3.7[16.7_µM] -1.4
O=C(C[C@H]1C=C[C@@H](NC(=O)Nc2ccc3c(c2)OCO3)[C@H](CO)O1)NCc1ccc(Cl)cc1 5.5[16.7_µM] -7.3
C[C@H]1CN([C@@H](C)CO)C(=O)c2cccc(NC(=O)C3CCOCC3)c2O[C@H]1CN(C)S(C)(=O)=O 1.4[16.7_µM] -9.2
CN1C(=O)c2cc(NC(=O)c3cccc(F)c3)ccc2OC[C@@H]2O[C@@H](CC(=O)NCc3ccccc3)CC[C@@H]21 12.0[16.7_µM] 20.6
CCC(=O)N[C@H]1CC[C@@H](CC(=O)NCCN2CCCCC2)O[C@H]1CO 5.8[16.7_µM] -9.8
Cc1ccc(S(=O)(=O)Nc2cccc3c2O[C@@H](CN(C)C)[C@@H](C)CN([C@H](C)CO)C3=O)cc1 1.3[16.7_µM] -4.0

Continued.
SMILES Env_fusion_inh Yeast_UUG_start
C[C@H](NC(=O)C[C@H]1C=C[C@H](NC(=O)C2CC2)[C@@H](CO)O1)c1ccccc1 -1.6[16.7_µM] -9.1
C[C@@H]1CN([C@@H](C)CO)C(=O)Cc2cc(NC(=O)CCC(F)(F)F)ccc2O[C@H]1CN(C)Cc1ccc(C(=O)Nc2ccccc2N)cc1 30.2[16.7_µM] 1.6
N#C[C@H]1[C@H](c2ccc(-c3cccc(F)c3)cc2)[C@H](CO)N1c1nc(-c2ccccc2)cs1 0.5[16.7_µM] -13.3
Cc1ccc(S(=O)(=O)Nc2cccc3c2O[C@@H](CN(C)C(=O)NC2CCCCC2)[C@H](C)CN([C@@H](C)CO)C3=O)cc1 3.1[16.7_µM] 19.4
CNC(=O)C[C@H]1CC[C@H]2[C@@H](COc3ccc(NC(=O)Nc4ccc(F)cc4)cc3C(=O)N2C)O1 19.5[16.7_µM] 13.5
C[C@@H]1CCCCO[C@@H](CN(C)C(=O)NC2CCCCC2)[C@@H](C)CN([C@H](C)CO)C(=O)c2cc(NS(=O)(=O)c3ccccc3)ccc2O1 -31.6[16.7_µM] 8.2
C[C@H]1CN([C@@H](C)CO)S(=O)(=O)c2ccc(C#CC3CCCC3)cc2O[C@H]1CN(C)C 29.0[16.7_µM] 27.1
C[C@@H]1CN([C@@H](C)CO)C(=O)c2cccc(NC(=O)CCCCCC(=O)Nc3ccccc3N)c2O[C@H]1CN(C)C(=O)Nc1ccccc1 36.9[16.7_µM] 15.3
O=C(C[C@@H]1CC[C@@H](NC(=O)C2CCOCC2)[C@@H](CO)O1)Nc1nccs1 10.0[16.7_µM] -10.2
Cc1noc(C)c1NC(=O)N(C)C[C@@H]1Oc2ccc(NC(=O)Nc3ccccc3)cc2CC(=O)N([C@@H](C)CO)C[C@@H]1C 0.8[16.7_µM] 8.1

The final 6 records of the part before are carried over, then new ones follow.
SMILES Env_fusion_inh Yeast_UUG_start
CNC(=O)C[C@H]1CC[C@H]2[C@@H](COc3ccc(NC(=O)Nc4ccc(F)cc4)cc3C(=O)N2C)O1 19.5[16.7_µM] 13.5
C[C@@H]1CCCCO[C@@H](CN(C)C(=O)NC2CCCCC2)[C@@H](C)CN([C@H](C)CO)C(=O)c2cc(NS(=O)(=O)c3ccccc3)ccc2O1 -31.6[16.7_µM] 8.2
C[C@H]1CN([C@@H](C)CO)S(=O)(=O)c2ccc(C#CC3CCCC3)cc2O[C@H]1CN(C)C 29.0[16.7_µM] 27.1
C[C@@H]1CN([C@@H](C)CO)C(=O)c2cccc(NC(=O)CCCCCC(=O)Nc3ccccc3N)c2O[C@H]1CN(C)C(=O)Nc1ccccc1 36.9[16.7_µM] 15.3
O=C(C[C@@H]1CC[C@@H](NC(=O)C2CCOCC2)[C@@H](CO)O1)Nc1nccs1 10.0[16.7_µM] -10.2
Cc1noc(C)c1NC(=O)N(C)C[C@@H]1Oc2ccc(NC(=O)Nc3ccccc3)cc2CC(=O)N([C@@H](C)CO)C[C@@H]1C 0.8[16.7_µM] 8.1
Cc1ccc(S(=O)(=O)N(C)C[C@@H]2OCCCC[C@@H](C)Oc3ccc(NC(=O)Nc4ccc(F)cc4)cc3C(=O)N([C@@H](C)CO)C[C@H]2C)cc1 24.1[16.7_µM] 20.3
COc1ccc(CN(C)C[C@H]2Oc3c(NC(=O)c4ccncc4)cccc3C(=O)N([C@H](C)CO)C[C@@H]2C)cc1 10.9[16.7_µM] -4.2
C[C@H](CO)N1C[C@H](C)[C@H](CN(C)C(=O)c2ccccc2F)Oc2ncc(-c3ccncc3)cc2C1=O -15.1[16.7_µM] -6.8
C[C@@H]1CN([C@H](C)CO)C(=O)c2cc(C#CC3CC3)cnc2O[C@H]1CN(C)C(=O)c1ccc(F)cc1 2.0[16.7_µM] 32.8
O=C(CN1CCOCC1)NCC[C@H]1CC[C@@H](NC(=O)Cc2ccccn2)[C@H](CO)O1 8.1[16.7_µM] -3.8
O=C(C[C@@H]1C=C[C@@H](NC(=O)Nc2cc(F)ccc2F)[C@H](CO)O1)Nc1ccccc1 2.7[16.7_µM] -4.1
C/C=C/c1cnc2c(c1)C(=O)N([C@H](C)CO)C[C@@H](C)[C@H](CN(C)C(=O)c1ccc3c(c1)OCO3)O2 -1.2[16.7_µM] -1.3
C[C@@H]1CN([C@@H](C)CO)S(=O)(=O)c2ccc(C#CC3(O)CCCC3)cc2O[C@@H]1CN(C)C(=O)Nc1ccc(F)cc1 -140.9[16.7_µM] 4.7
CO[C@@H]1CN(C)C(=O)c2ccc(NC(=O)NC(C)C)cc2OC[C@H](C)NC[C@H]1C -2.1[16.7_µM] -4.4
O=C(C[C@@H]1CC[C@H]2[C@@H](COC[C@H](O)CN2Cc2nccs2)O1)NCc1ccccc1Cl 5.7[16.7_µM] -3.6
CO[C@H]1CN(C)C(=O)c2cc(NC(=O)NC3CCCCC3)ccc2OC[C@H](C)N(C)C[C@@H]1C -3.7[16.7_µM] -1.7

Source: PubChem BioAssay
